Screening results deposited in PubChem by several laboratories.
PABP FP inh – PABP-poly(A) binding inhibition | hit rate 1% among 290,000 | AID 2014 | inhibition, % at 35 µM | PABP-poly(A) RNA binding, fluorescence polarization | P11940;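 active = 50% or more with normal probe brightness, or confirmed in later tests; inconclusive = above 50% with abnormal brightness, or retests that disagree; inactive = below 50% or failed in later tests; about a fifth of its hits are not listed in these tables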;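 also: calls also rest on retests at 20 µM and on dose response follow-up; controls were probe without protein and protein plus probe with vehicle; some compounds called inactive have numbers as strong as hits; many hits fall short of the cut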
Target sequence (P11940 whole entry, looked up): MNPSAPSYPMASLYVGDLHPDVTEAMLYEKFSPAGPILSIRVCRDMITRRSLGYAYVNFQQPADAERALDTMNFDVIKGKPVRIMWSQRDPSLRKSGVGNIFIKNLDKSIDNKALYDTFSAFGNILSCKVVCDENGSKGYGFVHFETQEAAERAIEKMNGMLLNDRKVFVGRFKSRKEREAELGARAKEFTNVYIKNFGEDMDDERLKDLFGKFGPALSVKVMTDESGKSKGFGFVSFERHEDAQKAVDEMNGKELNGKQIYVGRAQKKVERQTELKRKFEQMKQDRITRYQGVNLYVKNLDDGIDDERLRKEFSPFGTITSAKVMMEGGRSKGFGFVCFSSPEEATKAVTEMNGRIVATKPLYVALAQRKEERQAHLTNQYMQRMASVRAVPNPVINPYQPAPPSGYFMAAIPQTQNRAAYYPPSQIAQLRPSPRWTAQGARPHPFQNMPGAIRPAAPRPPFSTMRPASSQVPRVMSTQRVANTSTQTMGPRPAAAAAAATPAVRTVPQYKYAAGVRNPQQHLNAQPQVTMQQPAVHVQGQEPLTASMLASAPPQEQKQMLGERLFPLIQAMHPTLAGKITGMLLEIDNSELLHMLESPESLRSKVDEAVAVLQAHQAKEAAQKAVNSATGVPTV
eIF4H FP inh – inhibitors of RNA binding by human eIF4H. Q15056. eIF4H fluorescence polarization binding assay. inhibition, % at 35 µM. hit rate 0.94% among 290,000. AID 2012;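 active = 50% or more with normal probe brightness, or confirmed in later tests; inconclusive = above 50% with abnormal brightness, or retests that disagree; inactive = below 50% or failed in later tests; about a fifth of its hits are not listed in these tables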;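 also: calls also rest on retests at 20 µM and on dose response follow-up; 0% = protein and probe with vehicle and 100% = probe without protein; strong numbers were not always called active; many hits fall short of the cut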
MT1-MMP act inh – inhibitors of human MT1-MMP activation; GFP/RFP ratio change, % at 20 µM; hit rate 0.061% among 360,000; HT1080 RFP-PRO-GFP cells, GFP/RFP ratio fluorescence, overnight; percent of plate control window, DMSO zero; P50281; AID 651647;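 active = GFP/RFP ratio change of at least 30% with cell ATP level not reduced by more than half and red fluorescence within 50% of control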; also: strong numbers were not always called active
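Test system: HT1080 cells expressing an RFP-PRO-GFP fluorescent reporter construct / Compound dosing: single-point 20 µM compound, 1% DMSO / Schedule: cells overnight before dosing, compound overnight, 37 °C, 5% CO2 / Evaluation: GFP/RFP fluorescence ratio / Control set: DMSO and RFP-L50D-GFP cell wells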
HIV Env fusion – blocks HIV Env-driven cell-cell fusion | HeLa-JRFL Env/CEM21 cell fusion, luciferase | inhibition, % at 12.3 µM | hit rate 1.1% among 360,000 | AID 651610;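 active = mean replicate inhibition score of at least 50 and every replicate individually at or above 50; inconclusive = only one of the two criteria met; inactive = mean below 50 and not all replicates reaching 50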;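 also: 0% = plate neutral controls and 100% = maraviroc near 300 nM; one replicate is shown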
CSC inhib – blocks cancer stem cells; AID 2717; hit rate 1.1% among 300,000; cancer stem cell-like cells viability, luminescence; inhibition, % at 7.5 µM;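 active = mean at 75% or more and at least half the replicates too; inconclusive = mean and replicates disagree; tested in HMLE shEcad cells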;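 also: 0% = median of negative and 100% = median of positive control wells; the first replicate is given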
UUG fidelity – modulators of start codon recognition fidelity in yeast; activity score, % at 18.7 µM; S. cerevisiae UUG-firefly luciferase reporter, luminescence/redox ratio; hit rate 0.13% among 350,000;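 active = replicate mean at a twofold rise or more, about +100% in these data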;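 also: firefly luciferase made from a UUG start codon reports start codon fidelity; reporter light over untreated wells divided by growth signal over untreated wells; some hits fall short of that in this replicate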
Rce1 inhib – yeast Ras-converting enzyme inhibition; hit rate 0.27% among 290,000; Q03530; calls only; yeast membranes, quenched prenylated peptide cleavage fluorescence; AID 2563;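 active = fall in fluorescence gain of 50% or more versus controls, with final raw signal at or below 3038400; inconclusive = same 50% fall but final raw signal above 3038400; inactive = fall in fluorescence gain under 50%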;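 also: plate controls were neutral control wells for no effect and wells lacking membranes for full effect; tested at 10 µM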
Target sequence (Q03530 whole entry, looked up): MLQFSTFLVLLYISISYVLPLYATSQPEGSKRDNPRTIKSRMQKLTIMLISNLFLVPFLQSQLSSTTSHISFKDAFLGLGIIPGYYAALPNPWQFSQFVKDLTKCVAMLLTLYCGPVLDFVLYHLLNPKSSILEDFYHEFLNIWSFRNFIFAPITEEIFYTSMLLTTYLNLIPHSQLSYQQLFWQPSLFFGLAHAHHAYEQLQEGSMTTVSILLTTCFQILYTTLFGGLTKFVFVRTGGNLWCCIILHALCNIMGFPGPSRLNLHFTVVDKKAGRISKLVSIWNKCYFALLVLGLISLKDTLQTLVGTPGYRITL
eIF4H FP inh retest – recorded beside eIF4H FP inh, whose call it bears; inhibition, %; compound at 20 µM; confirmation average;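 mean of two retest wells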
PABP FP inh retest – recorded beside PABP FP inh, whose call it bears; inhibition, %; compound at 20 µM; confirmation repeats;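 mean of two retest wells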
MT1-MMP act inh RFP – also measured in MT1-MMP act inh; calls as there; RFP signal change, %; measured here: RFP expression control read;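 0 = vehicle wells; hits needed this value within 50% of zero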
The depositor's hits bear a star; i = inactive; ? = inconclusive; / = not tested or not shown; + = active, no number; & = joins results of further samples; [ ] = dose if it differs, or a comment.

SMILES | PABP FP inh | eIF4H FP inh | MT1-MMP act inh | MT1-MMP act inh RFP | HIV Env fusion | CSC inhib | UUG fidelity | Rce1 inhib | others
Cc1ccc(-c2ccc(CN3C(C(C)C)C(=O)N(Cc4cn(CCC5OCCCO5)nn4)CCS3(=O)=O)cc2)cc1 (stereo not drawn) | / | / | 3 | -20 | 2 | / | -16 | /
O=C(NCCc1ccccc1)C(=O)NCC1OCCN1S(=O)(=O)c1ccc(Cl)cc1 (stereo not drawn) | 7 | -3 | 4 | -9 | 10 | 5 | -10 | i
O=C(Nc1nccs1)c1cncc(Br)c1 | 0 | -12 | -12 | -5 | -12 | 8 | / | i
O=C(NCC1CCCO1)C(=O)NCC(c1ccco1)N1CCN(c2ccccc2F)CC1 (stereo not drawn) | 63 | -4 | 3 | 0 | 36 | -8 | / | i | eIF4H FP inh retest=-8;PABP FP inh retest=14
CN(C)S(=O)(=O)c1ccc(C(=O)Nc2ccccn2)cc1 | 3 | -4 | 11 | -2 | / | -5 | -8 | i
CCC1CCCCN1C(=S)Nc1ccc(S(=O)(=O)Nc2ncccn2)cc1 (stereo not drawn) | 0 | -2 | 0 | 3 | 9 | -19 | -19 | i
CCCN=C(C)c1c(-c2ccccc2)[nH]n(-c2nc3ccccc3s2)c1=O | -9 | -1 | -16 | -12 | -260 | -21 | -11 | i
CCOC(=O)c1c(NC(=O)CN2CCCCC2)sc2c1CCC(C=O)=C2Cl | -5 | -2 | -4 | 1 | 4 | 40 | -7 | i
CC1CCCN(c2ccc(C(=O)NCc3ccco3)cc2[N+](=O)[O-])C1 (stereo not drawn) | -4 | -4 | -1 | -3 | 2 | 3 | / | i
COc1cc(NC(=O)Cc2ccccc2)nc(OC)n1 | 3 | -3 | 1 | -1 | / | -5 | -8 | i
Cc1cccc(C(=O)NCC(=O)OCC(=O)NCCNC(=O)COC(=O)CNC(=O)c2cccc(C)c2)c1 | / | / | -2 | 7 | 25 | -3 | / | i
CC1CCCCN1C(=O)c1cc2ccccc2cc1O (stereo not drawn) | -8 | -4 | 9 | -4 | 10 | -7 | 27 | i
Nc1ccc2c(c1)C(=O)N(CC1CCCO1)C2=O (stereo not drawn) | 21 | 0 | 3 | 6 | -20 | 0 | -12 | i
Cc1ccc2c(c1)CO[C@@]21O[C@H](CCO)C[C@H](O)[C@H]1O | / | / | 2 | 6 | -5 | / | -15 | /
CCOC(=O)C1CCCN(C(=O)COc2ccc(S(=O)(=O)N3CCOCC3)cc2)C1 (stereo not drawn) | / | / | 0 | 1 | -3 | -17 | 1 | /
CC(=O)N1c2ccc(S(=O)(=O)NCCC(=O)Nc3ccc(Cl)cc3)cc2CC1C (stereo not drawn) | / | / | -1 | -6 | -2 | / | 17 | /
COc1cc(C2C(C(=O)c3ccco3)=C(O)C(=O)N2Cc2ccccc2)ccc1O (stereo not drawn) | 11 | 7 | 7 | 0 | 9 | / | -22 | i
CCOC(=O)c1ccc(NC(=O)C2CCN(S(=O)(=O)c3ccccc3)CC2)cc1 | / | / | 2 | -9 | 3 | 6 | -9 | i
O=C1CC2CS(=O)(=O)CC2N1C1CCCCC1 (stereo not drawn) | -8 | -10 | -3 | 3 | -17 | 0 | -19 | i
CNC(=O)/C(C#N)=C/c1ccc(-c2ccc(OC)cc2[N+](=O)[O-])o1 | 10 | 39 | 1 | 15 | -271 | -1 | -14 | i
CCOc1ccc2nc(NC(=O)CN3CCN(c4ccccn4)CC3)sc2c1 | -3 | -8 | / | / | 17 | -5 | / | i
CCOC(=O)N1CCC(NC(=O)c2sc3nc4n(c(=O)c3c2C)CCCC4)CC1 | -1 | 9 | 6 | 3 | -37 | -13 | -8 | i
CCOc1ccccc1OCC(=O)Nc1ccc2[nH]c(=O)[nH]c2c1 | / | / | 1 | 0 | 42 | -8 | -3 | /
COCCn1c(C)cc(C(=O)CSc2cc(C)c3ccc(OC)cc3n2)c1C | 13 | ? | -7 | -3 | 22 | 5 | 0 | i
Cc1cc(C)cc(N(CC(=O)Nc2ccc(C)cc2Cl)S(=O)(=O)c2c(C)[nH]c(=O)[nH]c2=O)c1 | -8 | 10 | 1 | 1 | -2 | / | 0 | i
COc1ccc(CN2CC(C(=O)NCc3cccc(OC)c3)CC2=O)cc1 (stereo not drawn) | 5 | -4 | 8 | 1 | / | 9 | / | i
Cc1ccc2nsnc2c1NC(=O)c1ccc(-c2cc(Cl)ccc2Cl)o1 | -4 | -17 | -10 | -6 | / | -18 | / | i
CCC1Oc2ccccc2N(CC(=O)NCC2CCCO2)C1=O (stereo not drawn) | 3 | 0 | 1 | 5 | 3 | -9 | -21 | i
Cc1ccc(S(=O)(=O)Nc2ccccc2CNc2ccc(Br)cn2)cc1 | 3 | 0 | -6 | -12 | -13 | 20 | / | i
Cc1ccc(S(=O)(=O)N2C(=O)C(C)SC2=Nc2ccccc2)cc1 (stereo not drawn) | -14 | -4 | -2 | 3 | -15 | / | -9 | i
C[C@@H]1CN([C@H](C)CO)C(=O)CCCn2cc(nn2)CO[C@H]1CN(C)C(=O)c1ccc(N2CCN(C)CC2)cc1 | / | / | 2 | 5 | -3[16.7 µM] | / | 4&-8 | /
O=C(CN1C(=O)c2ccc([N+](=O)[O-])cc2C1=O)NCC1CCCO1 (stereo not drawn) | / | / | 2 | 1 | -30 | 0 | / | i
Clc1nc(-c2n[nH]nc2Cl)n[nH]1 | -3 | -3 | 1 | -2 | -41 | 7 | -7 | i
CS(=O)(=O)N1CCN(c2ccccc2NC(=O)c2ccc([N+](=O)[O-])o2)CC1 | -6 | -12 | -9 | -8 | -5 | 10 | / | i
CON(C)C(=O)C[C@@H]1C[C@H](OC(=O)c2ccc([N+](=O)[O-])cc2)CN1C(=O)OC(C)(C)C | / | / | -1 | 4 | 4 | / | 15 | /
COc1ccc(NC(=O)C2CCCN(C)C2)cc1OCC(C)C (stereo not drawn) | 6 | 3 | -2 | 2 | -88 | -4 | 4 | i
COc1ccccc1Nc1nc(=O)[nH]nc1C | -8 | -15 | 8 | 4 | 5 | -10 | -11 | i
CCCNC(=O)C1(C)CCCN(C(=O)c2cccc(C#N)c2)C1 (stereo not drawn) | / | / | 2 | 3 | -44 | / | -18 | /
COc1ccc(CCNS(=O)(=O)c2cccc(C(=O)O)c2)cc1OC | -1 | -27 | 5 | 4 | / | / | -18 | /
Clc1ccccc1Nc1nc(NCc2ccccc2)nc2ccsc12 | / | / | -2 | -15 | 37 | / | -16 | /
C=CC[n+]1c(/C=C/c2ccc(OC(C)=O)c(OC)c2)ccc2ccccc21 | 7 | 8 | -4 | -4 | -21 | -1 | / | i
COc1ccc(NC(=O)CSc2nc3cccnc3n2C)cc1 | 2 | -3 | -9 | -8 | 9 | 30 | / | i
Cc1cccc(-c2cnc(C(O)c3ccc4ccccc4c3)[nH]2)c1 (stereo not drawn) | / | / | 2 | -4 | 7 | / | -8 | /
O=C(COc1ccccc1Cl)NCCNC(=O)c1ccncc1 | -3 | -2 | 3 | 6 | -6 | -6 | -12 | i
O=C(NCc1ccccn1)c1cccs1 | -8 | -5 | -2 | -2 | / | 6 | / | i
CN1CCN(C(=O)c2cccn(Cc3ccc(C(F)(F)F)cc3)c2=O)CC1 | 4 | 9 | 2 | 3 | 15 | -1 | / | i
Cn1ncc(Br)c1NC(=O)Nc1ccccc1 | 1 | -3 | 5 | 8 | / | / | -14 | i
Cc1cccc2cc(/C=N/NC(=O)c3ccccc3O)c(Cl)nc12 | -16 | 13 | 2 | 0 | -6 | 43 | / | i
COc1ccc(C(=O)CSc2nnc(CNC(=O)c3ccccc3)o2)cc1 | -8 | 1 | 2 | -2 | -3 | -8 | -2 | i
COc1ccc(CNC(=O)C(C)n2nc(C)c3c(C)n(-c4ccccc4)nc3c2=O)c(OC)c1 (stereo not drawn) | -3 | -5 | 2 | -3 | 3 | -3 | -11 | i
OC(c1ccc(F)cc1)c1nc(-c2ccc(F)c(Cl)c2)cs1 (stereo not drawn) | / | / | 4 | 1 | -2 | / | -9 | /
COc1ccc(C(=O)Nc2ccc(N3CCN(c4ccc(OC)cc4)CC3)c(C#N)c2)cc1 | -6 | -16 | 3 | 4 | / | -10 | -1 | i
CSCCC(NC(=O)c1ccco1)C(=O)NCC(c1ccco1)N1CCCCC1 (stereo not drawn) | / | / | -1 | 4 | 27 | / | -13 | /
CCC(Cc1ccccc1)n1c(=S)[nH]c2ccccc2c1=O (stereo not drawn) | -2 | -3 | -11 | -11 | 0 | 17 | / | i
Cc1ccc(O)c(-c2cc(C(=O)NCc3ccc4c(c3)OCO4)[nH]n2)c1 | 7 | -3 | 20 | 3 | -1 | 11 | / | i
CN(NC(=O)COc1ccccc1)c1ccccc1 | -11 | -4 | 2 | 6 | / | -5 | / | i
Cc1onc(-c2ccccc2)c1C(=O)NC(C)c1ccccc1 (stereo not drawn) | / | / | 2 | 3 | 14 | -1 | / | i
O=C(COC(=O)Cn1cnc2ccccc2c1=O)Nc1ccccc1OC(F)F | / | / | 0 | 1 | 3 | -15 | / | /
CCN(C(=O)COC(=O)c1cc(-c2ccccc2)nc2c1c(C)nn2-c1ccccc1)C1CCS(=O)(=O)C1 (stereo not drawn) | -5 | -10 | 2 | -1 | -9 | -3 | / | i
Oc1ccc(-c2cn3cc(C(F)(F)F)ccc3n2)cc1 | -2 | -2 | 7 | 5 | i | 8 | / | +
More results follow.
SMILES | PABP FP inh | eIF4H FP inh | MT1-MMP act inh | MT1-MMP act inh RFP | HIV Env fusion | CSC inhib | UUG fidelity | Rce1 inhib | others
O=C(O)c1cccc(-c2ccc(/C=N/NC(=O)c3cccnc3)o2)c1 | -6 | 41 | 1 | 5 | / | -11 | 2 | i
NC(=O)c1ccsc1NC(=O)CN1CCN(S(=O)(=O)c2ccccc2C(F)(F)F)CC1 | / | / | 5 | -5 | 14 | / | -6 | /
CCc1ccc(NC(=O)C(C)OC(=O)c2ccc(-n3cnnn3)cc2)cc1 (stereo not drawn) | / | / | 2 | 3 | -4 | 2 | -10 | i
CSc1cccc(NC(=O)CCS(=O)(=O)c2cccc3nonc23)c1 | 2 | 2 | 2 | 1 | 3 | 2 | -1 | i
Cc1cc(NS(=O)(=O)c2ccc(NS(=O)(=O)c3cc(C)c(Cl)cc3Cl)cc2)no1 | -7 | -9 | 0 | 0 | -2 | -5 | 8 | i
CC1CC(C)CN(CCCNC(=O)c2c(O)nc3ccccn3c2=O)C1 (stereo not drawn) | / | / | 2 | 3 | 11 | -6 | -19 | i
Cc1cc(NC(=O)CSc2nc3ccccc3c(=O)n2CCCC(=O)NCc2ccco2)n[nH]1 | -6 | -11 | 0 | 1 | -152 | 9 | -12 | i
COc1ccccc1CNc1ccc2nnc(CCNC(=O)c3ccccc3)n2n1 | -11 | 2 | 0 | 1 | 16 | -5 | / | i
CCN1CCN(C(=O)C2=CC(c3ccc(C)cc3)=NS(=O)(=O)N2C)CC1 | 5 | -6 | 1 | 4 | -13 | -10 | -18 | i
COc1ccc(OC)c(-c2c3c([nH]c(=S)c2C#N)CCCC3)c1 | 7 | 0 | -6 | -4 | 8 | -15 | / | i

Some of the compounds tested; count on the stated rates, not on these rows.
